# Screening data: PubChem, several laboratories
# YopH PTP inh: YopH tyrosine phosphatase inhibitors, primary screen, biochemical, fluorescence Ex485/Em525; inhibition, %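 (about 10 µM by stock and volumes)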; YopH tyrosine phosphatase [Yersinia enterocolitica]; AID 898, 2007; 0.16% of 140,000 active;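 active = inhibition of 50% or more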;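 also: controls were vehicle for no effect and minimum signal wells for full effect; inactives centre near -20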
# Mtb H37Rv: M. tuberculosis H37Rv growth inhibitors, H37Rv strain (AID 1626). 0.95% of 220,000 active. one-dose inhibition, % at 10 µM; IC50 in µM for titrated hits. M. tuberculosis H37Rv growth inhibition; higher % means a stronger effect;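 active = confirmed in a dose series; inconclusive = inhibition above 80% but not taken into the dose series; inactive = below 80% or under 30% at every dose of the series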;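 also: bacteria incubated seven days before Alamar blue readout; 0% = bacteria only wells and 100% = bacteria with antibiotic wells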
# Mtb betalactam: beta-lactam sensitization of Mtb H37Rv, H37Rv | M. tuberculosis H37Rv growth with meropenem, percent inhibition; hits of this screen are not shown here | inhibition, % at 25 µM | 0.27% of 330,000 active;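 active = about 74% or more and at least 40 points above the plate without the antibiotic, then above 30% in a dose series; inconclusive = first-round hits that could not be retested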;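 also: growth measured after seven days incubation then overnight dye step; 0% = bacteria only wells and 100% = bacteria with antibiotic; twin plates without the antibiotic show which effects depend on it; some results filed as inactive read as strong as hits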
# Arbovirus inh: antivirals against arbovirus infection, primary screen, cell-based, full library, 10K replicate subset. 0.37% of 200,000 active. inhibition, % at 10 µM. arbovirus infection cell-based antiviral screen;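 active = inhibition from about 30%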;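 also: bluetongue infection of BSR cells; cell survival read as ATP light after 72 h; 0% = infected wells without compound and 100% = uninfected wells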
# RecA splice inh: Mtb RecA intein splicing inhibitors, primary screen, biochemical, fluorescence, HTS | cell-free RecA intein splicing | Protein RecA (Mycobacterium tuberculosis (strain ATCC 25618 / H37Rv)), P9WHJ3 | 0.75% of 290,000 active | inhibition, %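 (about 9 µM by stock and volumes)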; in the data active = inhibition above about 30%; inconclusive = no clear call, values can overlap the other calls;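 also: 0% = vehicle wells and 100% = reference inhibitor control wells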
# Target sequence (P9WHJ3 whole entry, looked up, canonical isoform): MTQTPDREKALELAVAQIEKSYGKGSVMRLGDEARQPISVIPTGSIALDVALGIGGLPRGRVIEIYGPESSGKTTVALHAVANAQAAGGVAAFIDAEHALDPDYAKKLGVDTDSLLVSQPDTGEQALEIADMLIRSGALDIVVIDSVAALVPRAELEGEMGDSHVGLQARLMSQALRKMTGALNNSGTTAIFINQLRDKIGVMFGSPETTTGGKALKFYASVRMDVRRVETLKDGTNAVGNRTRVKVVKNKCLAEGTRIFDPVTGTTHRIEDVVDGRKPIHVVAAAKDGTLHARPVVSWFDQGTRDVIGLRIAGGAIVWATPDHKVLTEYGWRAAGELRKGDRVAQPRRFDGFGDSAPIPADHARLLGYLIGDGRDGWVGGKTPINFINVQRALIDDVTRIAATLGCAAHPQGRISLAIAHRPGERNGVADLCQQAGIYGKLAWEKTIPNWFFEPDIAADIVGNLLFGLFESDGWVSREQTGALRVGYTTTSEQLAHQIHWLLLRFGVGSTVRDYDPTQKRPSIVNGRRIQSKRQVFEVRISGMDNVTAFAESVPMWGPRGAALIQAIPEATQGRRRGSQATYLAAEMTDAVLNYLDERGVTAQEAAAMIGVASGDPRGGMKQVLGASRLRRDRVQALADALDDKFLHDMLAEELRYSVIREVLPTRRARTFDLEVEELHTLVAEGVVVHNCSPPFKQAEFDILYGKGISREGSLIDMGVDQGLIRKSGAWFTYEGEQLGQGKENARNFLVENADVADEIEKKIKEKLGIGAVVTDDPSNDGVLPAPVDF
# Arbovirus inh repeat: recorded beside Arbovirus inh, whose call it bears; inhibition, %; measured here: 10K subset replicate screen; many hits read low in the repeat;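 first of two repeat runs on a subset; 0% = infected and 100% = uninfected wells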
# * marks the source's active call; other numbers are inactive results; ? = inconclusive; . = no result given. This is a subset. The share of hits here may be higher or lower than overall.
SMILES,YopH PTP inh,Mtb H37Rv,Mtb betalactam,Arbovirus inh,RecA splice inh,others
COc1cccc(NC(=O)COC(=O)c2ccc(F)cc2F)c1,-32,?,54,-3,0.2,
CC1=C(C)C(c2ccccc2)NC(=S)N1 (stereo not drawn),-26,5%,-2,5,-0.1,
CCn1c(=N)n(CC(=O)c2ccc(Cl)c(Cl)c2)c2ccccc21,.,.,?,.,4.6,
Cc1occc(=O)c1OCc1c(F)cccc1Cl,.,2%,-7,12,-2.0,
CC(=O)Nc1cccc(N2C(=O)CC(N3CCC(C(=O)N4CCCCC4)CC3)C2=O)c1 (stereo not drawn),-27,-4%,-4,5,18,
COCCCNC(=O)Cn1cc2c(n1)CCC(C)C2 (stereo not drawn),-32,-8%,?,0,-0.8,Arbovirus inh repeat=1
CN1CCN(C(c2cc3cc4c(cc3[nH]c2=O)OCCO4)c2nnnn2C2CCCC2)CC1 (stereo not drawn),.,2%,0,14,-1.3,
O=C(O)c1cccc(S(=O)(=O)N2CCN(c3ccccn3)CC2)c1,.,.,7,.,-2.8,
CCc1ccc(CNCCc2ccccc2F)cc1,-11,10%,-5,-1,0.4,
Cc1cc2ncc(-c3cccc(Cl)c3)cn2n1,.,1%,-7,-7,.,
O=C(Nc1nc2c(s1)CCCC2)c1cccc(S(=O)(=O)N2CCCc3ccccc32)c1,4,17%,-2,-1,8.1,
NCCCCCc1nnc(SCc2ccc(Cl)c(Cl)c2)o1,-8,2%,0,-25,4.8,
COC(=O)c1cc2c(ccn2-c2ccc(F)cc2)n1CC(C)C,-86,7%,0,2,14,
CCOc1ccc(S(=O)(=O)N2CCCC(C(=O)N3CCOCC3)C2)cc1C (stereo not drawn),.,.,1,.,-0.1,
CCOc1ccc2[nH]c(=O)c(C(c3nnnn3C3CCCCC3)N3CCN(CC)CC3)cc2c1 (stereo not drawn),-10,0%,-3,-2,0.8,
CC(C)=NN/C(N)=N/C(=S)Nc1ccc(C)cc1,-2,5%,-2,-8,-0.5,
CCCOC(=O)CSC1=C(C#N)C(c2ccccc2OC)C(C#N)C(=O)N1 (stereo not drawn),-8,-1%,23,-1,-1.1,
C=CCNc1nc(N2CCCCC2)c(C#N)c2c1CN(Cc1ccccc1)CC2,-42,20%,-2,3,.,
COc1ccc(C2Nc3ccccc3C(=O)N2NS(C)(=O)=O)cc1 (stereo not drawn),.,-2%,-10,-2,-11,
COc1ccc(CCCC(=O)NC2CCCCC2C)c(C)c1 (stereo not drawn),-32,-5%,3,-2,1.7,
N#CC(c1ccccc1)N(CCCCl)C(=O)c1ccccc1 (stereo not drawn),-26,-6%,-4,4,-0.5,
O=c1nc2s/c(=C\c3ccc(-c4ccccc4[N+](=O)[O-])o3)c(=O)n2nc1-c1ccccc1,-1,-6%,.,-24,64*,
O=C(c1ccccc1)N1CCN(c2ncnc3c2cnn3-c2ccccc2)CC1,-24,-9%,25,10,-0.7,
C=CCNC(=S)N/N=C(\C)c1ccc(OC)cc1,5,-7%,94,-7,-0.6,
COc1ccc2ccccc2c1/C=N/Nc1cccc(C(=O)O)c1,.,.,-1,.,-0.7,
CC(=NCc1ccc2c(c1)OCO2)c1c(O)[nH]c(=O)[nH]c1=O,-24,-10%,-4,-35,-3.0,
CC(NC(=O)Nn1cnnc1)(C(F)(F)F)C(F)(F)F,-12,-2%,-5,-5,-0.6,
CCOc1ccc(NC(=O)CC2CC(C)(C)OC2=O)cc1 (stereo not drawn),-23,-8%,-4,3,-0.6,
CCOC(=O)/C=C1\CN(CCC(C)C)S(=O)(=O)c2ccccc21,.,.,-18,.,0.7,
CC1CCCCN1S(=O)(=O)c1cnc(Cl)c(Br)c1 (stereo not drawn),13,7%,-1,-1,3.1,
CCOC(=O)CCC(=O)N1CCOCCOCCN(C(=O)CCC(=O)OCC)CCOCCOCC1,-8,-13%,-6,3,0.3,
O=c1c(Br)c(NCc2ccccc2)cnn1-c1ccc(F)cc1,.,4%,0,-2,-0.5,
Cc1ccc(SCCNC(=O)c2ccccc2C)cc1,-7,16%,-6,12,-9.0,
C=CCn1cnc2c(nnn2-c2ccc(C)c(C)c2)c1=O,.,-2%,-6,-2,-0.7,
CN1C(=O)C(Cc2ccsc2)C(=O)N(C)C1=O,-31,-6%,-4,5,0.0,
O=C(NCCCc1ccccc1)c1ccc(CS(=O)Cc2ccccc2Cl)o1 (stereo not drawn),.,.,-2,.,-1.1,
CC(=O)Nc1ccc(NC(=O)c2cc(=O)c3ccc(C)cc3o2)cc1,.,.,0,.,-3.0,
O=C(Nc1ccc(Cl)cc1)OCc1cncs1,-28,2%,4,2,-1.3,
Cc1noc(C)c1S(=O)(=O)Nc1ccccc1Cl,.,.,1,.,0.9,
Cc1cc(C)c2c(c1)/C(=N/Nc1ccc(S(N)(=O)=O)cc1[N+](=O)[O-])CCC2,.,4%,-5,-8,1.3,
NC(=O)C1=C[C@H](c2ccc3c(c2)OCO3)C[C@H](OCc2ccc(CO)cc2)O1,.,-17%,-3,1,-0.9,
COc1ccc(CCN(Cc2cccs2)S(=O)(=O)c2ccc(S(=O)(=O)N(C)C3CCCCC3)cc2)cc1OC,-25,1%,-3,-4,0.9,
COc1cc(/C=C/c2noc(-c3ccccc3O)n2)cc(OC)c1OC,-25,4%,3,1,-2.8,
CCCc1cc(=O)[nH]c(SCC(=O)c2cc(C)n(CCOC)c2C)n1,-30,-11%,-1,7,-2.4,
O=C(Cc1ccccc1)Nc1ccc(S(=O)(=O)N2CCOCC2)cc1,.,.,-6,.,-1.3,
CCOC(=O)c1cc(=O)c2c([N+](=O)[O-])ccc(OC)c2o1,-19,2%,-6,-5,-0.3,
O=C(N/N=C/c1ccc(OC(F)F)cc1)C1=COCCO1,.,-4%,4,9,2.4,
COc1cc(COc2ccc3c(C)c(CCC(=O)O)c(=O)oc3c2)cc(OC)c1OC,.,.,3,.,-5.4,
Cc1cc(C(=O)CC#N)c(C)n1-c1c(C)n(C)n(-c2ccccc2)c1=O,.,-1%,-2,3,-3.6,
CCOC(=O)c1ccc(NC(=S)Nc2ccc3[nH]c(=O)[nH]c3c2)cc1,.,74%,93,.,-4.6,
c1cc(-c2nn[nH]n2)ccc1CN1CCCCC1,-51,5%,-9,0,-1.5,
COc1ccc(CCC(N)=O)cc1OC,2,-9%,-3,-5,0.6,
CC(=O)Oc1ccc(Cn2cnc3cc4ccccc4cc32)cc1,39,-7%,16,9,.,
COc1cccc(C(c2c(NC(=O)c3ccccc3)sc(C)c2C)N2CCN(C)CC2)c1 (stereo not drawn),-22,4%,3,-7,1.7,
Cc1nnc(N(C)C(=O)c2ccc3c(c2)OCO3)s1,.,-8%,4,0,-2.1,
O=C1c2ccccc2C(Nc2cccnc2)N1Cc1ccccc1Cl (stereo not drawn),7,1%,6,9,3.8,Arbovirus inh repeat=0
CC1(C)C2CCC(C2)C1(C)NC(=O)CN1CCCC1 (stereo not drawn),.,.,-15,.,-1.3,
O=C1c2cccnc2C(=O)N1Cc1ccc(S(=O)(=O)N2CCN(c3ccc(Cl)cc3)CC2)cc1,.,.,5,.,1.9,
COc1ccc(NS(=O)(=O)c2ccc3c(c2)CCN3C(=O)CCC(=O)O)cc1OC,.,.,4,.,-3.0,
O=S(NC1CCCCC1)C12CC3CC(CC(C3)C1)C2 (stereo not drawn),-32,-4%,4,5,1.0,

# Next part:
SMILES,YopH PTP inh,Mtb H37Rv,Mtb betalactam,Arbovirus inh,RecA splice inh,others
CN(CC(=O)Nc1ccc(N2CCOCC2)cc1)CC(=O)Nc1ccc(N2CCOCC2)cc1,.,-5%,-5,.,-4.4,
O=C(Nc1ccncc1)c1ccc2ncsc2c1,.,.,-4,.,0.6,
O=C(CSc1nc2ccccc2n1CC(=O)N1CCCC1)NCc1ccc2c(c1)OCO2,-54,-9%,3,-4,0.5,
O=C(Nc1ccccc1F)c1ccc(CN2CCN(c3ccccc3)CC2)cc1,.,.,4,.,3.0,
O=C(COC(=O)c1cc(=O)[nH]c(=O)[nH]1)NCc1ccccc1,-17,0%,6,4,-0.6,
c1ccc(-c2ccc(-c3ccccn3)s2)nc1,.,1%,3,.,-3.1,
Cc1ccc(-n2c(-c3c(-c4ccccc4)noc3C)n[nH]c2=S)cc1,-14,1%,5,-2,0.6,
CS(=O)(=O)N1CCN(C(=O)c2cc(-c3ccncc3)nc3ccc(Cl)cc23)CC1,15,3%,-11,3,-5.3,
CCOC(=O)c1sc(C)c2c(=O)n(Cc3ccc(Cl)cc3)cnc12,.,0%,6,10,-0.8,
C#CCOc1nc(C)cc(C)c1S(=O)(=O)c1ccccc1C,.,-3%,-2,2,0.4,
O=C(NCCc1ccc(Cl)cc1)C1CCC(=O)N1Cc1ccc(F)cc1 (stereo not drawn),-50,3%,0,8,2.1,
O=C1CCSc2ccc(Cl)cc2N1Cc1cccc(Cl)c1,-28,-2%,-4,6,-10,
Nc1nonc1-n1nnc(C(=O)N/N=C/c2ccccc2)c1CSc1ccc(Cl)cc1,-4,-4%,-3,-8,-0.2,
CC(=O)OC(CC(=O)O)C[N+](C)(C)C (stereo not drawn),-31,-4%,-3,9,-1.5,
Oc1c(Cl)cc(Cl)cc1CNn1cnnc1,.,1%,-2,-2,-0.9,
CCOc1ccc(Cl)cc1S(=O)(=O)NCc1ccccn1,.,0%,-3,1,3.5,
COc1cc(Cl)c(C)cc1NC(=O)c1cccc(OC)c1OC,.,13%,1,-1,5.2,
COC(=O)c1cccc(S(=O)(=O)N2CCC(NC(=O)NC34CC5CC(CC(C5)C3)C4)CC2)c1,-51,.,-10,10,0.2,
N#Cc1cc2c(nc1SCc1ccccc1)CCC2,-12,-10%,-8,-1,-0.3,
COP(=O)(NS(=O)(=O)c1ccccc1)OC,.,-2%,7,9,-2.5,
C=C(C)CN(CC)C(=O)CSc1nc2ncc(Cl)cc2[nH]1,6,.,-2,5,0.6,
COc1ccc(Cl)cc1NC(=O)C1CCCN(c2ncnc3c2nc2n3CCCCC2)C1 (stereo not drawn),.,.,32,.,-2.6,
COc1ccc(C(C)=O)cc1COc1ccccc1[N+](=O)[O-],.,-1%,-5,7,-2.6,
COC(=O)C/C=C/[C@@H](C)[C@@H](/C=N/OC[C@H]1O[C@H](c2ccccc2)C=C[C@@H]1Oc1ccc(OC)cc1)NS(=O)(=O)c1ccc(C)cc1,-10,.,.,3,0.3,
Cc1nnc(NC(=O)C2CCN(c3cnccn3)CC2)s1,-19,-1%,3,4,-1.9,
O=C(NCC1CCCCC1)c1cc(S(=O)(=O)N2CCCCC2)ccc1N1CCOCC1,.,6%,6,5,-1.7,
CC(C)(C)c1cc(CCC(=O)NCC2CCCO2)cc(C(C)(C)C)c1O (stereo not drawn),.,.,0,.,-1.8,
COc1cccc(-c2ccc(-c3noc(-c4ccccc4F)n3)c(OC)n2)c1,7,2%,.,-7,-1.1,
O=C1NC(=O)N(Cc2ccc(F)cc2)C(=O)/C1=C\C=C\c1ccco1,.,-3%,87,.,-0.8,
Cc1ccc(S(=O)(=O)/N=C(/Nc2ccc(F)cc2F)c2ccccc2)cc1,.,.,-4,.,0.2,

# Sorted by SMILES length (falling): part of the list above
SMILES,YopH PTP inh,Mtb H37Rv,Mtb betalactam,Arbovirus inh,RecA splice inh,others
COC(=O)C/C=C/[C@@H](C)[C@@H](/C=N/OC[C@H]1O[C@H](c2ccccc2)C=C[C@@H]1Oc1ccc(OC)cc1)NS(=O)(=O)c1ccc(C)cc1,-10,.,.,3,0.3,
COc1ccc(Cl)cc1NC(=O)C1CCCN(c2ncnc3c2nc2n3CCCCC2)C1 (stereo not drawn),.,.,32,.,-2.6,
CC(C)(C)c1cc(CCC(=O)NCC2CCCO2)cc(C(C)(C)C)c1O (stereo not drawn),.,.,0,.,-1.8,
C=C(C)CN(CC)C(=O)CSc1nc2ncc(Cl)cc2[nH]1,6,.,-2,5,0.6,
COP(=O)(NS(=O)(=O)c1ccccc1)OC,.,-2%,7,9,-2.5,
N#Cc1cc2c(nc1SCc1ccccc1)CCC2,-12,-10%,-8,-1,-0.3,

# Other results:
SMILES,YopH PTP inh,Mtb H37Rv,Mtb betalactam,Arbovirus inh,RecA splice inh,others
COc1ccccc1C1CC(=O)n2c(nc(-c3ccccc3)c2-c2ccccc2)S1 (stereo not drawn),-12,-5%,-7,2,-0.6,
Cc1nc(-c2cccc(S(=O)(=O)N3CCC(C)CC3)c2)cs1,3,1%,-15,10,6.3,
Cc1ccc(CCNC(=O)C2CCCN(C(=O)N(C)C)C2)cc1 (stereo not drawn),-1,-9%,-2,-6,-4.0,
CCOC(=O)[C@@H]1[C@H]2COc3cc(OC)ccc3[C@@H]2N2C(=O)N(c3ccc(Br)cc3)C(=O)[C@@]12C,.,.,-4,.,1.7,
Oc1ccc2ccccc2c1CN1CCN(c2ccccc2)CC1,-8,-3%,-9,-3,-2.7,
